D2 potentiator = positive allosteric modulators of human D2 dopamine receptor | AID 624464 | DiscoveRx D2 beta-arrestin cells, luminescence, 90 min; 100% = 57 uM dopamine signal | potentiation, % (test concentration not listed) | P14416 | 0.23% of 360,000 active; active = potentiation of 50% or more; inconclusive = 30% to 50%; inactive = 30% or less;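 further: compound concentration not given in the record; tested on top of an EC20 dose of dopamine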
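PathHunter beta-arrestin assay in DiscoveRx D2 cells. Compounds were added with an EC20 of dopamine (50 nM final) for 90 min at 37 deg C. Luminescence was read 1 h after detection reagent, with 57 uM dopamine as the EC100 control.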
gsp agonist = agonists of gsp mutant (McCune-Albright syndrome); 0.13% of 340,000 active; Potency, µM (titrated, usually from 76.9 µM), for inactives: at the top dose activation (cAMP increase), usual class: activators; gsp mutant cells, cAMP HTRF, 30 min; control for the full effect not named in the record; AID 624287; active = well fitted activation curve with a large enough effect; inconclusive = small, poorly fitted or top-dose-only effect, or another doubt; inactive = no such curve, though single readings can be large or run the other way; cell line not stated here;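 further: phosphodiesterase inhibitor Ro 20-1724 added with compounds to block cAMP breakdown; potency means the concentration at half of the fitted maximal effect; nearly all actives have a fitted effect of over 60% in size; about a fifth of the inactives were tested at one dose only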
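Cells stably selected in G418 were plated at 2000/well, grown 16-24 hr, then given compounds in DMSO with the PDE inhibitor […] (300 uM solution added) for 30 min at 37C; cAMP was read by HTRF.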
Sfp PPTase inh = Sfp phosphopantetheinyl transferase inhibition; Q9F4F7; Biochemical Sfp PPTase activity, qHTS; Potency, µM, for the others: max response, negative = inhibition, usual class: inhibitors; 3.5% of 310,000 active; AID 1490; active means well fitted inhibition curve with a large enough effect; inconclusive means small, poorly fitted or top-dose-only effect, or another doubt; inactive means no such curve, though single readings can be large or run the other way;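 further: the enzyme is Sfp with the accession as filed and its product quenches rhodamine fluorescence; potency means the concentration at half of the fitted maximal effect; 0% = enzyme reaction without inhibitor and -100% = no enzyme wells; top concentration of the series not given in the record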
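Reaction rates are the 30-min fluorescence difference (ex 525, em 598 nm) in wells containing 15 nM Sfp, 5 uM rhodamine-CoA and 12.5 uM BHQ-2-YbbR at pH 7.6 with 10 mM MgCl2.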
TRPV1 PAM = potentiators of human vanilloid receptor 1 (TRPV1) | AID 540277 | potentiation, % at 8.33 µM | 0.02% of 320,000 active | Q8NER1 | TRPV1-expressing cells, Fluo-8 calcium influx, capsaicin EC20 potentiation; host cell line not named in the record; control for the full effect not named in the record; active means potentiation above 80%; inconclusive means 30% to 80%; inactive means below 30%; further: 0% is about no effect
Target sequence (Q8NER1 whole entry, looked up): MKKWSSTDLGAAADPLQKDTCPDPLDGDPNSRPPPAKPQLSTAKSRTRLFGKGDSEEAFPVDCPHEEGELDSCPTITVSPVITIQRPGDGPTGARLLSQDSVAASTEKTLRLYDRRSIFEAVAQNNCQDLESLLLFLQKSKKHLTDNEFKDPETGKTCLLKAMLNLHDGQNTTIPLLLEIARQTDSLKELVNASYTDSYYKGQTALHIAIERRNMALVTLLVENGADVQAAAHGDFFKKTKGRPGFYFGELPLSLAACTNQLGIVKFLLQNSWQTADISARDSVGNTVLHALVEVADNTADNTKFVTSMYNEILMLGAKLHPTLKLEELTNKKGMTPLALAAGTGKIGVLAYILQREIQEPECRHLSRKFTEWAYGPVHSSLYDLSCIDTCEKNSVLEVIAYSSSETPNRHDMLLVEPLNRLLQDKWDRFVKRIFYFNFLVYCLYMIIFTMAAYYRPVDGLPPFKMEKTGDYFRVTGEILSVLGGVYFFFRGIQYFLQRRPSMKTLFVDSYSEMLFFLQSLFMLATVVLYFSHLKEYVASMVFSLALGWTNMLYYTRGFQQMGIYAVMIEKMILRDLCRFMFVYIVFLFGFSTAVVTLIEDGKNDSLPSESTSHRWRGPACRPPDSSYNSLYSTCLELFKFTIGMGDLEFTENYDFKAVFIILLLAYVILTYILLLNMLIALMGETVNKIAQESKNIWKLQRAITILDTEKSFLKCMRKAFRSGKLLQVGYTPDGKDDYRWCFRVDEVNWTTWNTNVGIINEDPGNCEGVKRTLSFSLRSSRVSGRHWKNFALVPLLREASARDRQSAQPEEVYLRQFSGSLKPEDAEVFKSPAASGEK
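Cells expressing TRPV1 were dye-loaded with Fluo-8 and read kinetically: 10 s baseline, 3 min after compound (agonist portion), then 2 min after EC20 capsaicin (allosteric enhancer portion). Calcium-bound dye fluorescence at 480/520 nm.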
ClpP mod = qHTS Assay for Activators of ClpP. ATP-dependent Clp protease proteolytic subunit (Bacillus subtilis (strain 168)), P80244. purified B. subtilis ClpP, FRET peptide cleavage, 20 min. Potency, µM (doses to about 57.5 µM), for inactives: at the highest dose activity change, negative = active. 1.9% of 340,000 active. AID 651965, 2013; active = well fitted falling curve with a large enough effect; inconclusive = small, poorly fitted or top-dose-only effect; inactive = no such curve, though single readings can be large or run the other way; further: potency means the concentration at half of the fitted maximal effect; the source files actives as falling curves though it sought activators and does not explain the sign; nearly all actives have a fitted effect of over 65% in size; many hits overshoot -100%
Target sequence (P80244 whole entry, looked up): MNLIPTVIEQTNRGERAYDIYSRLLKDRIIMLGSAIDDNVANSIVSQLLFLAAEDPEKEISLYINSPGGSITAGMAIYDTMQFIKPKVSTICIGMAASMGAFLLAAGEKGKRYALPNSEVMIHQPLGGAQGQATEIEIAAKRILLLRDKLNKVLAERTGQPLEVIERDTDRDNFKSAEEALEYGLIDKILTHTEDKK
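Buffer: 100 mM Tris/HCl pH8, 100 mM KCl, 0.05% low protease BSA, 2.5% glycerol, 0.01% Tween-20. ClpP 10 microg/mL final; 20 min RT; delta FRET normalized to ADEP and DMSO controls.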
Menin-MLL FL inh = menin-MLL binding inhibition, fluorescein peptide. Fluorescence polarization, fluorescein-MLL peptide displacement from menin. FP activity change, % at 61.4 µM. 290,000 tested, under 10 active. AID 1766; inconclusive = falling polarisation curve, or a change in total fluorescence; inactive = total fluorescence flat and polarisation flat or rising; no compound was filed as active; the % refers to the polarisation; negative = inhibition;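 further: % of control where 0% means no effect; inhibitors lower the polarisation; unlabelled MLL peptide was the positive control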
gsp antagonist = antagonists of gsp mutant (McCune-Albright syndrome); gsp-mutant cells, cAMP HTRF, 30 min; control for the full effect not named in the record; Potency, µM (doses to about 76.9 µM), inactives show at the top dose activity change, negative = inhibition, usual class: inhibitors; 0.4% of 340,000 active; AID 624288; active = falling curve of any shape with a large fitted effect; inconclusive = falling curve, mostly with a smaller effect; inactive = flat or rising curve; cell line not stated here;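 further: intracellular cAMP measured with PDE inhibitor Ro 20-1724 present during compound exposure; potency means the concentration at half of the fitted maximal effect; on the % scale 0 is the no-effect control and ±100 the full control effect; nearly all actives have a fitted effect of over 65% in size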
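G418-selected cells were plated in DMEM/10% FBS for 16-24 h at 37C, then treated with compounds plus the PDE inhibitor […] (300 uM solution added) for 30 min at 37C. Intracellular cAMP was measured by HTRF after 30 min lysis at room temperature.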
Active calls of the source: *; ? = inconclusive; . = no result given; & = joins results of further samples; [ ] = dose if it differs, or a comment.

Every second line gives: D2 potentiator	gsp agonist	Sfp PPTase inh	TRPV1 PAM	ClpP mod	Menin-MLL FL inh	gsp antagonist
- Cc1ccc(OCCC(=O)Nc2cc(S(=O)(=O)N3CCOCC3)ccc2N2CCCC2)cc1
→ -2	19%	.	.	-1.4%	.	-11%
- COc1ccc(CCNC(=O)CCCN2C(=O)c3ccccc3C2=O)cc1
→ -6	7%[15.4 µM]	4%	-16	.	-0.9	-23%
- O=C(NCCN1CCN(c2ccccc2)CC1)c1cccc(Cl)c1
→ -6	19%	4%	11	-2.7%	-6.8	5%
- CCC(=O)Nc1nnc(SCC(=O)Nc2cccc(Cl)c2)s1
→ 2	-2%[15.4 µM]	24%	-2	0.6%	.	-2%
- CC(C)(C)c1ccc(-n2ncc3c2CCCC3NC(=O)C2(C(N)=O)CC2)cc1 (stereo unspecified)
→ -10	2%	1%	12	0.0%	1.2	-16%
- CCN(CC)CCN(Cc1cc2cc(C)c(C)cc2[nH]c1=O)C(=S)NCc1ccco1
→ -16	6%[15.4 µM]	-9%	11	.	1.3	10%
- CC(C)(C)OC(=O)NCc1ccc(CNC(=O)c2[nH]cnc2C(=O)NCC(=O)OCc2ccccc2)cc1
→ ?	.	10%	?	-0.4%	-0.5	?
- Cc1csc(Nc2nc(N)c(C(=O)Nc3cc(Cl)ccc3F)o2)n1
→ -11	8%[15.4 µM]	-6%	18	-4.2%	1.4	-3%
- COc1ccc(S(=O)(=O)N2CCOCC2)cc1C(=O)Nc1ccc(N2CCCCCC2)cc1
→ -1	1%	.	.	0.2%	.	-22%
- Cc1ccc(NC(=O)NC(=O)N(C2CCCCC2)S(=O)(=O)c2ccccc2)cc1
→ 1	3%[15.4 µM]	-3%	-3	-6.4%	0.5	24%
- CCn1cc(/C=N/NC(=O)c2ccc3c(c2)OCO3)c(C)n1
→ -17	3%	3%	-11	-2.9%	-1.3	4%
- Cc1cc(C)cc(-n2c3nc4ccccc4nc3c3c(=O)n(Cc4ccco4)cnc32)c1
→ -14	5%	7.1µM*	10	-15%	11	-17%
- CCC(C(=O)NC1CCCCC1)n1c(SCc2ccccc2F)nc2ccncc21 (stereo unspecified)
→ -9	-23%	8%	-10&0	-12%&-5.0%	0.8	9%
- COC(=O)C1=C(C(=O)OC)C2C(C)=CC(C)=CN2C(C(=O)OC)=C1C(=O)OC (stereo unspecified)
→ -8	30%	?	-8	?	-7.0	4%
- O=C(/C=C/Nc1cccc([N+](=O)[O-])c1)c1ccco1
→ -6	-2%	.	.	0.6%	.	-9%
- O=C(Cc1ncc(C(F)(F)F)cc1Cl)NCc1ccco1
→ -3	-6%	16%	?	.	-6.6	6%
- O=C(NCCCn1ccnc1)c1sc2cc([N+](=O)[O-])ccc2c1Cl
→ 1	22%	.	.	-3.6%	.	.
- COc1cc(OC)cc(C(=O)Nc2ccc(Cn3ccnc3)cc2)c1
→ -7	-6%	15%	?	-3.0%	4.1	0%
- O=C1CC(N2CCN(c3ccccc3F)CC2)C(=O)N1c1ccc2c(c1)OCCO2 (stereo unspecified)
→ -7	2%	6%	-5	1.4%	2.8	7%
- CS(=O)(=O)n1nc(OC(=O)c2cc(Br)ccc2Cl)cc1N
→ -1	-10%	?	9	-1.2%	-3.8	6%

(listing goes on)
Every second line gives: D2 potentiator	gsp agonist	Sfp PPTase inh	TRPV1 PAM	ClpP mod	Menin-MLL FL inh	gsp antagonist
- CC(NC(=O)c1ccco1)c1nc(-c2ccccc2Cl)no1 (stereo unspecified)
→ -4	-9%	-10%	16	.	-0.3	10%
- C=CCSc1nc(N2CCOCC2)c2c(c1C#N)CC(C)(C)N(C)C2
→ -13	?	-10%	-1	-1.6%	-27	-6%
- O=C(COc1ccc2ccc(=O)oc2c1)NCC(O)c1ccccc1 (stereo unspecified)
→ -9	11%	10%	9	3.6%	.	-3%
- Cn1c(=O)n(C)c2cc(/C=N/N=C3/NC(=O)C(CC(=O)O)S3)ccc21 (stereo unspecified)
→ -6	0%	?	3	.	1.2	5%
- CCOC(=O)c1ccc(N/C=C2/CCCC(C)C2=O)cc1 (stereo unspecified)
→ -1	0%	2%	-15	-5.9%	1.2	-9%
- O=[N+]([O-])c1cccnc1N/N=C/c1ccccc1O
→ -4	-43%[inhibitor]	18%	-4	.	-0.6	1%
- O=C1c2ccccc2C(=O)N1CCSc1nnc(-c2ccco2)n1Cc1ccccc1
→ -4	14%	-4%	-10	0.6%	2.5	-20%
- CCCc1nc2ccccc2c(=O)n1-c1c(C)n(C)n(-c2ccccc2)c1=O
→ -3	?	27%	-3	-5.8%	2.3	6%
- CCN(CC(=O)Nc1ccc(NC(C)=O)cc1)C(=O)c1cc([N+](=O)[O-])ccc1Sc1ccc(Cl)cc1
→ 2	-36%	.	.	-6.7%	.	?
- COc1ccccc1C(CNc1ccc(S(=O)(=O)N2CCCC2)cc1[N+](=O)[O-])N(C)C (stereo unspecified)
→ 8	-4%[15.4 µM]	9%	-2	-1.1%	-4.7	4%
- Cc1ccc(C(=O)NN=Cc2ccc3c(c2)OCO3)cc1
→ -11	0%	.	.	.	.	-16%
- Cc1cc(C)c(C(=O)CN2C(=O)NC3(CCCCC3)C2=O)cc1C
→ -7	?	19%	-18	-2.1%	-1.6	9%
- COc1cc(NS(=O)(=O)c2c(C)[nH]c(C)c2C(=O)N2CCCC2)cc(OC)c1OC
→ -3	-5%	18%	5	0.0%	.	-5%
- CC(C)c1ccc(/C=C/C(=O)NC(=S)Nc2ccc(CN3CCOCC3)cc2)cc1
→ -15	-7%[15.4 µM]	4%	6	.	-0.2	-13%
- Cc1cc(C)c(NC(=O)C2CCCO2)c(C)c1NC(=O)C1CCCO1 (stereo unspecified)
→ 3	-11%[15.4 µM]	17%	3	.	1.3	4%
- CCCc1nc(NCCCOCC)c2nnn(Cc3ccccc3)c2n1
→ -1	-37%[inhibitor]	14%	-9	1.5%	1.3	-5%
- COc1ccccc1-n1c(SCC(=O)O)nc2sc3c(c2c1=O)CCC3
→ 4	2%[15.4 µM]	9%	.	.	5.9	5%
- CC(C(=O)N1CCCCC1)N(C)CC(=O)Nc1ccc(Cl)cc1 (stereo unspecified)
→ -17	-41%[inhibitor]	13%	0	0.8%	0.2	-11%
- COc1cccc(C2C(C(=O)NCc3ccccc3)=C(C)Nc3ncnn32)c1 (stereo unspecified)
→ -8	-22%	10%	-4	-2.3%	-2.0	9%
- Cc1oc(-c2ccccc2F)nc1CS(=O)(=O)CC(=O)NCCCc1ccccc1
→ -2	6%	11%	13	-3.7%	4.7	-18%

More results
Every second line gives: D2 potentiator	gsp agonist	Sfp PPTase inh	TRPV1 PAM	ClpP mod	Menin-MLL FL inh	gsp antagonist
- COc1ccccc1N1CCN(CC(O)COc2ccc(S(=O)(=O)N3CCOCC3)cc2)CC1 (stereo unspecified)
→ -19	10%	-9%	3	-0.9%	0.1	-4%
- COC(=O)c1cc2n(n1)CCN(Cc1cccc(OC)c1)C2=O
→ -2	12%[15.4 µM]	14%	-13	.	-5.0	20%
- COc1ccc(S(=O)(=O)NC2CC(C)(C)NC(C)(C)C2)c(C)c1C
→ .	.	2%	0	.	-1.0	.
- CCCNC(=S)N1CCCC(c2nc3ccccc3[nH]2)C1 (stereo unspecified)
→ -23	3%[15.4 µM]	16%	-2	.	-3.9	.
- CCSc1nnc(NC(=O)c2cccc(OCc3c(C)noc3C)c2)s1
→ -3	-6%	?	-9	-13%	-1.0	?
- Cc1cc(S(=O)(=O)Nc2cccnc2)c(C)s1
→ -25	-11%	6%	2	-4.5%	2.8	10%
- COC(=O)N/N=C(\C)c1ccc(OC(F)F)cc1
→ -3	14%[15.4 µM]	7%	12	-0.6%	5.0	-6%
- CCCCNC(=O)CCCN1C(=O)c2cccnc2Sc2ccccc21
→ -3	-30%[inhibitor]	1%	2	1.5%	8.5	-2%
- COc1cc(/C=N/NC(=O)c2ccc(C)nc2)cc([N+](=O)[O-])c1O
→ -10	45%	-13%	12	.	-0.1	?
- Cc1nn(C)c(C)c1S(=O)(=O)N1CCCC(C(=O)NC2CCCCCC2)C1 (stereo unspecified)
→ -1	-25%	16%	-5	-0.4%	3.3	-14%
- CC(C)(C)c1[nH]nc2c1C(c1ccccc1OC(=O)N1CCOCC1)C(C#N)=C(N)O2 (stereo unspecified)
→ -10	-8%	-7%	-5	0.0%	3.5	10%
- Cc1c(NC(=S)NC(=O)c2ccco2)cccc1-c1nc2ncccc2o1
→ -3	16%[15.4 µM]	?	-14	.	8.4	4%
- CCCC(C)NC(=O)c1ccc(C2SCC(=O)N2Cc2ccco2)cc1 (stereo unspecified)
→ -7	13%	-3%	4	32µM*	0.1	-5%
- CC1CCN(C(=O)/C(=C\c2cccs2)NC(=O)c2ccccc2)CC1
→ -10	-2%[15.4 µM]	20%	10	0.9%	2.5	-3%
- COc1ccc(CCN2C(=O)c3cccc4c(C(=O)N5CCCCC5)ccc(c34)C2=O)cc1OC
→ 11	15%	-18%	0	-7.2%	-0.7	-16%
- Cc1cc(Cl)ccc1OCC(=O)OCC(=O)N1CCC(C(N)=O)CC1
→ -3	-8%	.	-1	-1.6%	.	5%
- N=C1/C(=C/c2cccn2CCOc2ccccc2)C(=O)N=C2SC=C(c3ccccc3)N12
→ -6	-38%[inhibitor]	12%	5	-2.4%	?	18%
- CCOC(=O)c1cc(C)nn1-c1nc(Cl)cc(OC)n1
→ -17	0%	-2%	3	2.2%	4.6	9%
- CCN(Cc1ccccc1)C(=O)Cn1c(=O)n(-c2ccc(OC)cc2OC)c(=O)c2c(C)c(C)sc21
→ -4	3%	14%	2	0.8%&-5.3%	0.2	-25%
- Cc1ccsc1C(=O)NNC(=O)Nc1ccc(Cl)c(Cl)c1
→ -2	2%	-12%	7	0.1%	-2.3	-9%

Exported with tabs: 2 of the compounds above.
molecule	D2 potentiator	gsp agonist	Sfp PPTase inh	TRPV1 PAM	ClpP mod	Menin-MLL FL inh	gsp antagonist
N=C1/C(=C/c2cccn2CCOc2ccccc2)C(=O)N=C2SC=C(c3ccccc3)N12	-6	-38%[inhibitor]	12%	5	-2.4%	?	18%
CCOC(=O)c1cc(C)nn1-c1nc(Cl)cc(OC)n1	-17	0%	-2%	3	2.2%	4.6	9%

Screens deposited in PubChem BioAssay by National Center for Advancing Translational Sciences (NCATS).
